From PubChem
AID504770: growth inhibition of E. coli YBA685, primary screen, V. cholerae RctB inhibitors; actives 0.27% (n = 130,000); E. coli YBA685 rctB-dependent plasmid, OD600 growth, 3 h; stronger effect = lower value; z-score (concentration not given with the values);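 active means z-score under -2 on both plates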;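 further: wells of about 30 µL received 100 nL stock; score is relative to mean and SD of the test wells; the first replicate is given; strong numbers were not always called active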
Ba CapD inh: Bacillus anthracis CapD inhibitors, primary screen, biochemical, fluorescence intensity; CapD gamma-glutamyltranspeptidase (Bacillus anthracis Ames Ancestor); purified CapD enzyme, fluorescence intensity read-out; stronger effect = lower value; some hits fall short of the stated cut; z-score (test concentration not listed); actives 0.23% (n = 140,000);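 active means z-score under -4 in either of two replicates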;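 further: stock transfer was 100 nL into about 40 µL; score is relative to mean and spread of the plate; one replicate is shown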
* hit, by the source's call; x = not tested or not shown.

no.	SMILES	AID504770	Ba CapD inh
1	COc1cc(CC(=O)O)c([N+](=O)[O-])cc1OC	x	-1.7
2	CC(=O)N(Cc1ccccc1)c1ccc(C(=O)O)cc1	0.4	0.66
3	CC1=C(C(=O)N2CCCCC2)C(c2ccc(Br)cc2)n2c(nc3ccccc32)N1 (stereo not given)	1.1	0.09
4	CCOC(=O)c1c(-c2cccc(N)c2)cn2ccccc12	-0.3	39
5	Cc1ccc(NC(=O)c2snc3ccc(Cl)cc23)cc1C	1.4	-0.88
6	O=C(NCCCN1CCN(c2ccccc2F)CC1)c1ccc(CS(=O)(=O)c2ccc(Br)cc2)o1	-0.4	0.3
7	Cc1ccc(NC(=O)Oc2ccccc2N2CCOCC2)cc1Cl	-1.2	-0.54
8	O=C(CCCN1CCC(n2c(=O)[nH]c3ccccc32)CC1)c1ccc(F)cc1	x	1.5
9	Cc1cc(C)nc(Nc2ccc(O)cc2)n1	-0.7	x
10	NC1=C(c2ccccc2)C(=O)c2ccccc21	x	-0.97
11	CC1(C)CC(=O)C(N=Nc2cccc(F)c2C#N)=C(O)C1	-0.8	-0.72
12	C=CCc1cc2c(C)cc(=O)oc2c(I)c1O	0.75	1.7

Entries above containing a Cl atom:
no.	SMILES	AID504770	Ba CapD inh
5	Cc1ccc(NC(=O)c2snc3ccc(Cl)cc23)cc1C	1.4	-0.88
7	Cc1ccc(NC(=O)Oc2ccccc2N2CCOCC2)cc1Cl	-1.2	-0.54

(next part)
no.	SMILES	AID504770	Ba CapD inh
13	CC(c1ccco1)N(C(=O)C12CC3CC(CC(C3)C1)C2)c1ccccn1 (stereo not given)	1.4	x
14	COc1cc(Br)c(OC)cc1C	x	0.69
15	CC1C(c2ccccc2)=NOC(C)(C(=O)c2ccccc2)N1O (stereo not given)	0.2	x
16	Cc1cc(NCCCN2CCOCC2)n2c(nc3ccccc32)c1C#N	-1.1	46
17	O=C(NCC1COc2ccccc2O1)C(NS(=O)(=O)c1cccc2nsnc12)c1ccccc1 (stereo not given)	-0.05	-0.23
18	COc1cccc(-c2nc(CC(=O)OCC(=O)NC3CCS(=O)(=O)C3)cs2)c1 (stereo not given)	0.2	x
19	O=c1oc(-c2cccnc2Oc2ccccc2)nc2cccc(F)c12	-1.1	-0.14
20	C=CCNc1nc(C(=O)OCC2COc3ccccc3O2)cs1 (stereo not given)	-0.4	x
21	CCOC(=O)c1cc(-c2ccc(OC)c(S(=O)(=O)N(C)Cc3ccccc3)c2)on1	1.3	-0.16
22	COc1ccc(-c2c(C)nc3ccc(Cl)cc3c2-c2ccccc2)cc1OC	x	0.52
23	O=c1c(Br)cccc(Br)c1O	-3.5*	-2.3
24	Cc1cc(N2CCCC2=O)c(N)cc1N	-0.4	-0.44
25	COc1cc(OC)c(NC(=O)Cn2ncc3c2-c2cc(C)ccc2OC3)cc1Cl	-0.2	-0.69
26	CCCNc1nc2ccccc2s1	-1.2	x
27	CCn1c(CN2CCCCCC2=O)nnc1SC(C)c1nc2ccccc2c(=O)[nH]1 (stereo not given)	-1.2	x
28	Cc1ccc(S(=O)(=O)N(Cc2ccccc2)Cc2ccco2)cc1	0.85	-0.18
29	CCOc1cc(N(CC)CC)ccc1C=C1C(=O)NC(=S)NC1=O	1.1	0.22
30	CCOC(=O)C1=CN(Cc2ccc(Cl)cc2)C=C(C(=O)OCC)C1c1ccc(O)c(OCC)c1	x	0.7
31	COc1cc2ccccc2cc1C(=O)Nc1ccc2c(c1)OCCO2	-1	-0.95
32	CCCc1ccc(S(=O)(=O)NC(C)c2ccc(C)cc2)cc1 (stereo not given)	x	-0.27
33	O=C1CS(=O)(=O)CN1c1ccc(Cl)c(Cl)c1	-0.45	1.8
34	COc1cc(NC(=O)c2ccccc2CC[N+](=O)[O-])cc(OC)c1OC	x	-0.21
35	CNc1nc(-c2ccccc2)cc(-c2ccccc2)n1	0.85	53
36	CC(=O)Nc1ccc(-c2nnc3c4ccccc4c(C)nn23)cc1	-0.65	0.4
37	O=C1CC(c2ccccc2)CC(O)=C1C=NCc1ccccc1 (stereo not given)	-0.25	-0.16
38	COc1ccc(S(=O)(=O)N2CCCCCC2)cc1C(=O)NC1CCCCC1	-0.4	x
39	O=C(N1CCc2ccc(S(=O)(=O)Nc3ccc4c(c3)OCCO4)cc2C1)C(F)(F)F	x	-0.33
40	O=C(O)COCC(=O)Nc1nc(-c2ccc(F)c(F)c2)cs1	-0.1	-0.42
41	Cc1ccc(CNc2nc3c(c(=O)[nH]c(=O)n3C)n2Cc2ccccc2C)cc1	1.1	-0.08
42	O=C(CO)N/N=C\c1c(F)cccc1Cl	-0.3	x
43	Cc1ccc(CN2C(=O)CCC2C(=O)NCc2ccc3c(c2)OCO3)cc1 (stereo not given)	-0.45	0.03
44	O=C(COC(=O)c1ccc(Br)o1)NCC1CCCCC1	0.05	0.05
45	O=C1c2ccc(-c3ccc4c(c3)C(=O)N(CCO)C4=O)cc2C(=O)N1CCO	-0.15	x
46	CC(C)NC(=O)CSc1nc2ccccc2n1CC(=O)N1CCOCC1	-0.45	x
47	O=[N+]([O-])c1cccc(S(=O)(=O)Nc2ccc3oc4c(c3c2)CCCC4)c1	x	-0.39
48	COc1cnn(C2CCCCC2)c(=O)c1Cl	-0.35	0.59
49	CCOC(=O)C1CCCN(C(=O)c2sc3ncnc(N4CCc5ccccc5C4)c3c2C)C1 (stereo not given)	x	-0.16
50	NS(=O)(=O)c1ccc2nc(NC(=O)c3cc(-c4ccccc4)nc4ccccc34)sc2c1	x	-0.61
51	CC12CCC(=O)N1C(C(=O)O)CS2 (stereo not given)	-0.55	x
52	O=C(NC1CC1)C1CCC(=O)N1Cc1ccccc1Cl (stereo not given)	0	-1.1
53	CCOC(=O)C1=C(CC)Nc2ccccc2N=C1NC(=O)CCNC(C)=O	0.9	x
54	C=CCOc1ccc(CN2CCN(C(=O)CCCCC3CCCCC3)CC2)cc1	x	-0.54
55	CCOC(=O)C(C#N)C1(Cc2ccccc2)CCOC(C)(C)C1 (stereo not given)	-0.35	0.36
56	CC1CC(=O)c2cc(Cl)ccc2S1 (stereo not given)	-1.2	1
57	C=CCN1C(=O)C(CC(=O)NCC)SC1=Nc1ccc(S(N)(=O)=O)cc1 (stereo not given)	-1.1	x
58	Cc1nn(-c2ccccc2)c(C)c1CN(C)CC(=O)NC1CCS(=O)(=O)C1 (stereo not given)	-0.3	x
59	O=C(O)c1ccccc1C(=O)NC1CCN(c2nccc(C(F)(F)F)n2)CC1	1.3	0.69
60	CSCCC(NC(=O)c1ccc(C(F)(F)F)cc1)C(=O)N/N=C/c1ccc(O)c(C(=O)O)c1 (stereo not given)	x	7.5
61	CCCN1CCC(N(C2CC2)S(=O)(=O)c2ccccc2)CC1	x	-0.65
62	CCOC(=O)N1CCN(C(=O)CN(c2cccc(Cl)c2Cl)S(=O)(=O)c2ccccc2)CC1	x	-0.11
63	Cc1noc(C)c1CC(C#N)(Cc1c(C)noc1C)C(=O)Nc1ccccc1	-0.15	x
64	COc1ccc(C2=NN(C(=O)CCC(=O)O)C(c3ccc(Cl)cc3)C2)cc1OC (stereo not given)	x	43
65	O=S(=O)(Cc1cccc(C(F)(F)F)c1)N1CCOCC1	-0.05	0.17
66	COc1ccc(OCC(O)CNC(=O)c2ccccc2)cc1 (stereo not given)	0.5	-0.23
67	COc1ccc(-n2c(=O)c3c(n4c(=S)[nH]nc24)-c2ccccc2CC32CCCC2)cc1	x	-0.45
68	COC(=O)C1C(=O)NC(SCC(=O)Nc2ccc(Br)cc2)=C(C#N)C1c1ccc(Cl)cc1 (stereo not given)	x	0.74
69	CCc1ccc(NC(=O)COC(=O)CC2(CC(=O)N3CCOCC3)CCCCC2)cc1	-0.25	x
70	O=C(OCC(=O)N1CCN(S(=O)(=O)c2ccc3ccccc3c2)CC1)c1n[nH]c2ccccc12	-1.1	x
71	CCOC(=O)C1C2NC(=S)NC1(C)Oc1ccccc12 (stereo not given)	-0.6	x
72	Cc1ccc(C)c(NC(=O)CSc2ncnc3sc(C)c(C)c23)c1	-0.15	0.42

The list goes on.
no.	SMILES	AID504770	Ba CapD inh
73	C=CCN1C(=O)NC(=O)/C(=C/C=C/c2ccccc2)C1=O	-0.2	-0.42
74	CCCCNc1ncnc2c1nnn2Cc1ccccc1Cl	0.5	x
75	CCO/C=C1\SC(=S)N(CCc2ccc(OC)c(OC)c2)C1=O	-0.25	-0.17
76	Cc1[nH]c2ccccc2c1C(=O)CC#N	1.2	-0.34
77	O=C(NC1CCCC1)c1ccc2nc(-c3ccccc3)c(-c3ccccc3)nc2c1	x	-0.35
78	CCCN1C(=O)C(C#N)=C(C)/C(=C\c2ccc(-c3ccc(Br)cc3)o2)C1=O	-0.2	1.7
79	CC1(c2ccc(Br)cc2)NC(=O)CS1 (stereo not given)	-0.55	0.065
80	Cc1nonc1NC(=O)c1cccs1	-0.9	0.24
81	O=C(O)c1ccccc1SCc1cc(=O)n2ccsc2n1	-0.3	0.07
82	CCOc1ccc(N2C(=O)/C(=C/c3c(OC)ccc4ccccc34)C(=O)NC2=S)cc1	x	-0.39
83	Cn1nc(C(=O)NCc2cccnc2)c2ccccc2c1=O	-0.3	0.16
84	O=C(COc1ccc(S(=O)(=O)NC2CCCCC2)cc1Cl)NCc1ccccn1	2.5	x

Profiles, looked up by structure:
CCCN1CCC(N(C2CC2)S(=O)(=O)c2ccccc2)CC1 reads AID504770 = x; Ba CapD inh = -0.65
CCOc1ccc(N2C(=O)/C(=C/c3c(OC)ccc4ccccc34)C(=O)NC2=S)cc1 reads AID504770 = x; Ba CapD inh = -0.39

Going on with the list:
no.	SMILES	AID504770	Ba CapD inh
85	O=c1[nH]c(=O)n(S(=O)(=O)c2ccc(F)cc2)cc1F	0.2	x
86	O=[N+]([O-])c1c(Cl)cc(O)c2c1C1C=CCC1C(c1ccc(Cl)cc1)N2 (stereo not given)	x	-1.3
87	Nc1cccc(F)c1C(=O)NCc1cccs1	-0.35	66
88	CC(C)(C)NS(=O)(=O)c1ccc(N2CCCCS2(=O)=O)cc1	-1.1	2.1
89	O=C(Nc1ccc2c(c1)OCO2)c1nn2c(c1Br)NC(c1cccs1)CC2C(F)(F)F (stereo not given)	x	-0.95
90	COCC(=O)Nc1nc(-c2ccccc2)ns1	0.05	0.045
91	Nc1ccc2c(c1)S(=O)(=O)c1cc(N)ccc1-2	x	-1.5
92	CCSc1nc2sc3c(c2c(=O)n1CC)CCCC3	1.7	0.02
93	Clc1ccc(-c2nc(N3CCCCC3)c3ccccc3n2)cc1	-0.55	0.18
94	CCc1ccc(S(=O)(=O)n2nnc3ccccc32)cc1	x	-0.31
95	O=C1COc2ccc(C(=O)CSC(=S)N3CCCC3)cc2N1	2.3	x
96	Cc1ccc(S(=O)(=O)C2(C(=O)N3CCN(c4cccc(Cl)c4)CC3)CC2)cc1	1	-0.51

Structures shown so far with a nitro group on carbon:
no.	SMILES	AID504770	Ba CapD inh
1	COc1cc(CC(=O)O)c([N+](=O)[O-])cc1OC	x	-1.7
34	COc1cc(NC(=O)c2ccccc2CC[N+](=O)[O-])cc(OC)c1OC	x	-0.21
47	O=[N+]([O-])c1cccc(S(=O)(=O)Nc2ccc3oc4c(c3c2)CCCC4)c1	x	-0.39
86	O=[N+]([O-])c1c(Cl)cc(O)c2c1C1C=CCC1C(c1ccc(Cl)cc1)N2 (stereo not given)	x	-1.3

Following part.
no.	SMILES	AID504770	Ba CapD inh
97	CC(=O)OCC1O[C@@H](n2cc(N(CCCl)CCCl)c(=O)[nH]c2=O)C(OC(C)=O)[C@H](OC(C)=O)[C@@H]1OC(C)=O (stereo not given in full)	x	-0.45
98	Cn1c2c(c(=O)n(C)c1=O)C(=O)CN2c1ccccc1	-0.7	0.35
99	O=C(NNc1ccc(-c2csnn2)cc1)c1ccccc1C(F)(F)F	x	0.47
100	COC(=O)c1c(O)cc(=O)[nH]c1N	0.15	0.52
101	COc1ccc(-c2nn(-c3ccccc3)cc2/C=C\C(N)=O)cc1	0.2	37
102	N#CCC1C(=O)Nc2ccccc21 (stereo not given)	0.05	x
103	Cn1ncc(C(=O)Nc2ccc(OC(F)(F)F)cc2)c1-n1cccc1	0.05	0.76
104	Cc1ccc(NS(=O)(=O)c2cc(C(F)(F)F)cc(C(F)(F)F)c2)c(N)c1	x	-0.43
105	CCCCN(C)S(=O)(=O)c1ccc(C)c(-c2nnc3c4ccccc4c(C)nn23)c1	-1	-1.3
106	CCCc1c(C)c2ccc(OCC(=O)OC)cc2oc1=O	-1.1	55
107	O=S(=O)(c1ccc(Oc2ccc(S(=O)(=O)N3CCOCC3)cc2)cc1)N1CCOCC1	0.8	0.15
108	Cc1noc(C)c1CSc1ccccc1C(=O)OCC(=O)NC1(C#N)CCCCC1	-0.85	x
109	Cc1cc2oc(=O)cc(-c3cc4ccccc4o3)c2cc1OCC#N	-0.55	x
110	COc1ccc2c(=O)c3c(oc2c1)C(=O)N(CCN1CCOCC1)C3c1ccccc1 (stereo not given)	0.15	x
111	O=C(NCc1ccc2c(c1)OCO2)c1cccnc1Oc1ccccc1	2.3	0.47
112	COC(=O)c1c2c(nc3ccccc13)CCC2	1.4	8.2
113	CCCCNC(=O)c1cc(C)on1	-0.3	-0.81
114	O=C(CSc1n[nH]c(-c2ccco2)n1)N1CCOCC1	x	-0.045
115	O=C1CCCc2oc3ccc(O)cc3c21	x	-0.22
116	O=C(NC1(C(F)(F)F)Oc2ccccc2O1)Sc1ccccc1	-0.75	-0.62
117	CC1CCC(NC(=O)c2ccc(CS(=O)(=O)Cc3cccc(Cl)c3)o2)CC1 (stereo not given)	1.4	0
118	COc1ccccc1NC(=O)c1sc(=S)n(-c2ccccc2OC)c1N	x	0.07
119	C=C1SC(Nc2cc(C)c(C)cc2C)=NC1(C)C	x	-0.99
120	COc1cc(OC)cc(N2CCN(C(=O)OCC3CCCCN3Cc3cc(OC)ccc3OC)CC2)c1 (stereo not given)	x	-0.43
